From PubChem
Methyltransferases – Primary Screen for Target Class Profiling of Small Molecule Inhibitors of Methyltransferases; calls only at 40 µM; 25,000 compounds, 3.9% hits; purified enzyme, MTase-Glo SAH luminescence; active compounds read low; active = -50% or lower on at least one of six enzymes; inconclusive = the cases between; inactive = as a rule above -30% on all six;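 also: enzymes were COMT GAMT GNMT HNMT NNMT and PNMT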
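Each enzyme was assayed with SAM and its substrate. SAH formation detected by MTase-Glo luminescence; single-point 40 uM screen[…].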
Calls only; i = inactive; ? = inconclusive; + = active, no number. % is scaled to controls: 0 for no effect and ±100 for the full control effect. An excerpt. The share of hits here may be higher or lower than overall.

| Molecule | Methyltransferases |
| --- | --- |
| Cc1ccc(C)c(S(=O)(=O)n2cnc3ccccc32)c1 | i |
| CC1CCCC(NC(=O)C2(C)Cn3c(nc4ccccc43)C(=O)N2Cc2cccs2)C1C (centres undefined) | i |
| Nc1ncnc2c1c(COc1cccc(Cl)c1)nn2C1CCOCC1 | ? |
| O=C(O)C[C@@H]1CCN(C(=O)c2ccco2)C[C@@H]1CCN1CCOCC1 | i |
| CC1(C(=O)NC2CCCCCC2)Cn2c(cc3occc32)C(=O)N1Cc1ccccc1 (centres undefined) | i |
| Cc1ccc(C(=O)COC(=O)C(Cc2c[nH]c3ccccc23)NC(=O)c2ccco2)cc1 (centres undefined) | i |
| O=C(c1cc(-c2ccc(Cl)cc2Cl)c2cccn2n1)N1CCCC1 | i |
| CC1(C(=O)NC2CCCCCCC2)Cn2c(cc3occc32)C(=O)N1CCCc1ccccc1 (centres undefined) | i |
| O=C(Cn1c(=O)oc2cc(S(=O)(=O)N3CCCC3)ccc21)Nc1ccccc1F | i |
| COC(=O)C1=COC(O[C@@H]2O[C@H](CO)[C@@H](O)[C@H](O)[C@H]2O)C2C(C)C(=O)CC12 (some centres undefined) | i |

| Molecule | Methyltransferases |
| --- | --- |
| Cc1ccc(C)c(N2C(=O)CSc3c(c4ccccc4n3C)C2C(=O)NCc2ccccc2)c1 (centres undefined) | i |
| Cc1ccc(CNC(=O)Cn2ccc3cc(S(=O)(=O)N4CCC(C)CC4)ccc32)cc1 | i |
| CCC(=O)N1CCc2cc(OC)c(O)cc2C1 | ? |
| O=C(CC1CCN(C(=O)Cc2ccccc2F)C1)NC1CC1 (centres undefined) | i |
| CCC1c2ccc(C)n2CCN1C(=O)Nc1cc(C)ccc1C (centres undefined) | i |
| CCCNC(=O)c1ccc2c(=O)nc3c(-c4ccc(OC)cc4)n[nH]n3c2c1 | i |
| COc1ccccc1C(=O)N1CCCC(c2nnc3n2C(C(=O)O)CC3)C1 (centres undefined) | i |
| C[C@@]1(C(=O)Nc2ccc(F)nc2)CCCN1c1nc(Nc2cc(C3CC3)[nH]n2)c2cccn2n1 | i |
| Cc1ccc(CNC(=O)Nc2cnc3c(c2)CCC3)cc1 | i |
| CSCC[C@@H]1NC(=O)c2cc(NC(=O)c3cc(-c4ccccn4)n[nH]3)ccc2NC1=O | i |

Reprinted at random: two entries already listed.
| Molecule | Methyltransferases |
| --- | --- |
| Cc1ccc(CNC(=O)Nc2cnc3c(c2)CCC3)cc1 | i |
| COC(=O)C1=COC(O[C@@H]2O[C@H](CO)[C@@H](O)[C@H](O)[C@H]2O)C2C(C)C(=O)CC12 (some centres undefined) | i |

(more compounds)
| Molecule | Methyltransferases |
| --- | --- |
| CC1OC(OC2C(CO)OC(OCC3OC(OC(=O)C45CCC(C)(C)CC4C4=CCC6C7(C)CCC(OC8OC(CO)C(O)C(OC9OC(CO)C(O)C(O)C9O)C8O)C(C)(C)C7CCC6(C)C4(C)CC5)C(O)C(O)C3O)C(O)C2O)C(O)C(O)C1OC1OC(CO)C(O)C(O)C1O (centres undefined) | i |
| O=C1NC2(CCN(Cc3ccccc3)C2)Oc2ccccc21 (centres undefined) | i |
| Cc1ccc(Cl)cc1NC(=O)c1nc[nH]c1C(=O)Nc1nc2ccccc2[nH]1 | ? |
| C[C@@H]1O[C@@H](O[C@H]2[C@@H]3C=CO[C@@H](O[C@@H]4O[C@H](CO)[C@@H](O)[C@H](O)[C@H]4O)[C@@H]3[C@@]3(CO)O[C@@H]23)[C@H](O)[C@H](OC(=O)/C=C/c2ccc(O)c(O)c2)[C@H]1O | i |
| Cc1cnc(C(=O)N[C@@H]2CCC[C@@H]2C(=O)N2CCC(N3CCCCC3)CC2)cn1 | i |
| CCOCCCN1C(=O)c2cc3occc3n2CC1(C)C(=O)NC1CCC(C)CC1 (centres undefined) | i |
| COc1cc(C)c(C(=O)OC2C(C)OC(OC3CCC(C)C4C3C=C(C)C3/C(C)=C\CC/C(C)=C/C5(C)C=C(C(=O)O)C(C)CC56OC(=O)/C(=C(\O)C34C)C6=O)C(O)C2O)c(OC)c1 (centres undefined) | i |
| CCOc1ccc(CCN2C(=O)c3cc4ccc(OC)cc4n3CC2(C)C(=O)NC2CCCC2)cc1 (centres undefined) | i |
| CN1C(=O)CC[C@]2(C(=O)N3CCN(c4ccccc4)CC3)CCCC[C@@H]12 | i |
| COc1cccc(CN2Cc3nc(-c4cnn(C)c4)ccc3OCC2=O)c1 | i |

| Molecule | Methyltransferases |
| --- | --- |
| CC(=O)N1CCC(N[C@@H]2CO[C@H](CNS(=O)(=O)c3ccccc3)[C@H]2O)CC1 | i |
| CC(C)n1cc(-c2cc(C(=O)N(C)Cc3cccnc3)c3cc(F)ccc3n2)cn1 | i |
| C1=Cc2ccccc2C(=C2CCN(CCCCc3nn[nH]n3)CC2)c2ccccc21 | ? |
| CC1=C(C(=O)N2CCC(CCC(=O)Nc3ccc4c(c3)OCCO4)CC2)OCCO1 | i |
| CCOC(=O)c1cc2n(n1)CC(C)(C(=O)NCc1ccc(C)cc1)N(Cc1ccc(C)cc1)C2=O (centres undefined) | i |
| COCc1ccc(C(=O)N2CCN(CCO)CC(O)C2)cc1 (centres undefined) | i |
| CC1CC[C@]2(C(=O)O)CC[C@]3(C(=O)O)C(=CCC4[C@@]5(C)CC[C@H](OC6OC(C)C(O)C(OC7OC(CO)C(O)C(O)C7O)C6O)C(C)(C)C5CC[C@]43C)C2C1C (some centres undefined) | i |
| C=CCNC(=O)c1cc2n(n1)CC(C)(C(=O)NCc1ccc(F)cc1)N(C)C2=O (centres undefined) | i |
| CC1CCC2C(=CCC(O)C2(C)C)C1(C)Cc1c(O)cc(CO)c(C=O)c1O (centres undefined) | i |
| CCOC(=O)N1c2ccc(C(F)(F)F)cc2[C@@H](N(Cc2cc(C(F)(F)F)cc(C(F)(F)F)c2)C(=O)OC)C[C@H]1CC | ? |

| Molecule | Methyltransferases |
| --- | --- |
| COCCN1C(=O)c2ccc(-c3ccco3)n2CC1(C)C(=O)NC1CCC(C)CC1 (centres undefined) | i |
| CCOc1ccccc1NC(=O)N1CCCCCCNC(=O)CC1c1ccccc1 (centres undefined) | i |
| CC(C)c1cc2n(n1)CC(C)(C(=O)NC1CCCCCC1)N(Cc1ccccc1Cl)C2=O (centres undefined) | i |
| CC1(C(=O)NC2CCCC2)Cn2c(nc3ccccc32)C(=O)N1Cc1ccco1 (centres undefined) | i |
| COc1cc(=O)n2c(c1C(=O)N1CCN(c3ccc(C)cc3C)CC1)CCCC2 | i |
| O=S(=O)(NCCc1ccc(Cl)cc1)c1ccc2[nH]c3c(c2c1)CCCC3 | i |
| CC(C)(C(=O)NCC(F)(F)C(F)(F)F)C(=O)NC1C(=O)Nc2ccccc2-c2ccccc21 (centres undefined) | ? |
| COc1ccc2cc3n(c2c1)CC(C)(C(=O)NCC1CCCO1)N(CC(C)c1ccccc1)C3=O (centres undefined) | i |
| CCc1ccc(NC(=O)CSc2nnc3[nH]c(=O)c(C)nn23)cc1 | i |
| CCc1ccc(CNC(=O)c2ncn3c2C(=O)N(C2CC2)C(C)(C(=O)NCc2ccc(F)cc2)C3)cc1 (centres undefined) | i |

| Molecule | Methyltransferases |
| --- | --- |
| O=C(NCc1nnc2ccccn12)[C@H]1CNC[C@H](C(=O)N2CCOCC2)C1 | i |
| COc1ccc(N2C(=O)c3cc(-c4cccs4)nn3CC2(C)C(=O)NC2CCCCC2)cc1 (centres undefined) | i |
| CCOC(=O)c1ccc2c(c1)C1C=CCC1C(c1ccc(OC(C)=O)cc1OC(C)=O)N2 (centres undefined) | i |
| CCC(C)NC(=O)c1ccc2c(=O)n(CCC(C)C)c3nn(Cc4ccccc4Cl)c(=O)n3c2c1 (centres undefined) | i |
| CCOc1ccccc1NC(=O)c1ncn2c1C(=O)N(C1CC1)C(C)(C(=O)NCc1ccc(OC)cc1)C2 (centres undefined) | i |
| Cc1ccc(CN2C(=O)c3cc(-c4ccco4)nn3CC2(C)C(=O)NC2CCCCCC2)cc1 (centres undefined) | i |
| CC(C)Cn1c(=O)c2ccc(C(=O)NC(C)C)cc2n2c(=O)n(CC(=O)Nc3cc(F)ccc3F)nc12 | i |
| COc1ccccc1CNC(=O)C1(C)Cn2nc(-c3ccccc3)cc2C(=O)N1c1ccc(C(C)C)cc1 (centres undefined) | i |
| O=C(c1nc2ccccc2n(C2CCCC2)c1=O)N1CCCC1 | i |
| CCN1CCC(CC(=O)N2CCC(C3CCN(C(=O)NC)CC3)C2)CC1 (centres undefined) | i |

| Molecule | Methyltransferases |
| --- | --- |
| Cc1ccncc1C(=O)N1CCCn2ccnc2C1c1ccccc1 (centres undefined) | i |
| O=C(O)C(Cc1ccccc1)NC(=O)C1CCCN1 (centres undefined) | i |
| CCN1CCC[C@@H]1CNC(=O)c1ccc2c(c1)NC(=O)c1cccc(C)c1S2 | ? |
| COc1ccc(-c2cc3n(n2)CC(C)(C(=O)NCc2ccccc2)N(CCc2ccco2)C3=O)cc1 (centres undefined) | i |
| CC1(C)Oc2ncnc(N)c2N=C1c1ccc(C2CCC(CC(=O)O)CC2)cc1 (centres undefined) | i |
| Cn1c(=O)oc2cc(S(=O)(=O)NCCc3nc(-c4ccc(F)cc4)n[nH]3)ccc21 | i |
| CCn1c(=O)n(CC)c2cc(S(=O)(=O)N3CCN(c4ccc(F)cc4)CC3)ccc21 | i |
| Cc1cccc(N2CCN(C(=O)CCc3nnc4n(Cc5ccccc5)c(=O)c5ccccc5n34)CC2C)c1 (centres undefined) | i |
| COc1ccc(NC(=O)Cn2nc3n(CCC(C)C)c(=O)c4ccccc4n3c2=O)cc1 | i |
| Cc1ccc(C)c(C(=O)Cn2nc3n(CCCOC(C)C)c(=O)c4ccccc4n3c2=O)c1 | i |

Next part, overlapping the part above by six compounds.
| Molecule | Methyltransferases |
| --- | --- |
| CC1(C)Oc2ncnc(N)c2N=C1c1ccc(C2CCC(CC(=O)O)CC2)cc1 (centres undefined) | i |
| Cn1c(=O)oc2cc(S(=O)(=O)NCCc3nc(-c4ccc(F)cc4)n[nH]3)ccc21 | i |
| CCn1c(=O)n(CC)c2cc(S(=O)(=O)N3CCN(c4ccc(F)cc4)CC3)ccc21 | i |
| Cc1cccc(N2CCN(C(=O)CCc3nnc4n(Cc5ccccc5)c(=O)c5ccccc5n34)CC2C)c1 (centres undefined) | i |
| COc1ccc(NC(=O)Cn2nc3n(CCC(C)C)c(=O)c4ccccc4n3c2=O)cc1 | i |
| Cc1ccc(C)c(C(=O)Cn2nc3n(CCCOC(C)C)c(=O)c4ccccc4n3c2=O)c1 | i |
| CC(C)CN1CCC[C@H]1c1nc(-c2ccnc(NS(C)(=O)=O)c2)no1 | i |
| O=C(c1ccco1)N1CCC2(CCN(CCCn3cccn3)CC2)C(CO)C1 (centres undefined) | i |
| CN1C(=O)c2cc(C(=O)NCCCN3CCOCC3)nn2CC1(C)C(=O)NCc1ccccc1 (centres undefined) | i |
| COc1ccc(-c2cc3nc4c(c(=O)n3[nH]2)CN(S(=O)(=O)c2cccs2)CC4)cc1 | ? |
| Oc1c(C(c2ccccc2)N2CCOCC2)sc2nc(-c3ccco3)nn12 (centres undefined) | ? |
| CCCc1cc(CN(C)C(=O)c2ccc3c(c2)[nH]c(=O)n3C2CCC(O)CC2)[nH]n1 (centres undefined) | i |
| COc1cccc(CN2C(=O)c3c(-n4cccc4)c4ccccc4n3CC2(C)C(=O)NC2CCCC2)c1 (centres undefined) | i |
| Cc1ccc(CNC(=O)C2(C)Cn3nc(C(=O)NCc4ccc(C)o4)cc3C(=O)N2C)cc1 (centres undefined) | i |
| C[S+](=O)([O-])c1cccc(NC(=O)Cc2c[nH]c3ncc(-c4cccnc4)cc23)c1 | i |
| COc1ccc(OC)c(CCNC(=O)C(C)n2ccc3cc(S(=O)(=O)N4CCCC4)ccc32)c1 (centres undefined) | i |

| Molecule | Methyltransferases |
| --- | --- |
| Cc1ccccc1N1CCN(S(=O)(=O)C[C@]23CC[C@H](C[C@@H]2NC(=O)[C@@H](N)CCS(C)(=O)=O)C3(C)C)CC1 | ? |
| COc1cccc(-c2[nH]cnc2-c2ccccc2)c1OCCCN(C)C | i |
| O=C(O[C@@H]1O[C@H](CO)[C@@H](O)[C@H](O)[C@H]1O)c1c(O)cc(O)cc1/C=C/c1ccccc1 | + |
| CCOc1ccccc1CN1C(=O)c2cc3ccc(OC)cc3n2CC1(C)C(=O)NC1CCCCC1 (centres undefined) | i |
| CN1[C@@H]2CC[C@H]1CC(OC(c1ccccc1)c1ccccc1)C2 (some centres undefined) | ? |
| O=[S+]1([O-])N(c2ccccc2)C[C@@H](O)[C@]12CCN(Cc1ccc(OC(F)F)cc1)C2 | i |
| CCC1c2ccc(C)n2CCN1C(=O)Nc1cc(Cl)ccc1OC (centres undefined) | i |
| CCOc1ccccc1CN1C(=O)c2cc(-c3ccco3)nn2CC1(C)C(=O)NC1CCCCC1 (centres undefined) | i |
| O=C(c1ccc(-c2ccc(Cl)cc2)o1)N(Cc1ccccn1)c1ccc(N2CCNCC2)cc1 | ? |
| COC(=O)C1=COC(O[C@@H]2O[C@H](CO)[C@@H](O)[C@H](O)[C@H]2O)/C(=C\COC(=O)/C=C/c2ccccc2)C1CC(=O)OCCc1ccc(O)cc1 (some centres undefined) | i |

| Molecule | Methyltransferases |
| --- | --- |
| CC(C)Cn1c(=O)c2ccc(C(=O)NC(C)C)cc2n2c(=O)[nH]nc12 | i |
| O=C(O)c1ccc2c(c1)C1C=CCC1C(c1cccc(F)c1)N2 (centres undefined) | ? |
| C=CCn1c(=O)c2ccc(C(=O)NCC(C)C)cc2n2c(=O)n(CC(=O)Nc3ccccc3C)nc12 | i |
| CC1=C(C(=O)O)/C(=C\CO[C@@H]2O[C@H](CO)[C@@H](O)[C@H](O)[C@H]2O)C(OC(=O)/C=C\c2ccc(O)cc2)C1 (some centres undefined) | i |
| Cc1cc(NS(=O)(=O)c2ccc3c(c2)n(C)c(=O)n3C)ccc1Br | i |
| O=C(c1csc2nc(-c3ccc(F)cc3)cn12)N1C[C@H]2CC[C@@H](C1)N2 | i |
| CCC(C)NC(=O)c1ccc2c(=O)n(Cc3ccccc3)c3nn(CC(=O)NC4CCCC4)c(=O)n3c2c1 (centres undefined) | i |
| O=C(c1cc(Br)cn2ccnc12)N1CCCC1 | i |
